NPYLR7 agonist = activates Aedes aegypti NPYLR7 receptor; 270,000 tested, 0.15% active; activation, % at 10 µM; HEK293T NPYLR7/Galpha15, GCaMP6s calcium fluorescence; in the data active = activation above about 40%;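 also: 0% = vehicle and 100% = reference agonist at the receptor; some compounds past the cut are filed as inactive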
NPYLR7 agonist max-min = also measured in NPYLR7 agonist; calls as there; activation, %; measured here: Max-Min RFU normalised activation; some inactives read as strong as hits;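 span of the calcium signal over five minutes; 0% = vehicle and 100% = native peptide agonist; compound fluorescence can raise it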
* = called active by the depositor; & = joins results of further samples.

SMILES	NPYLR7 agonist	NPYLR7 agonist max-min
O=c1c2ccccc2cnn1CN1CCN(S(=O)(=O)c2ccccc2F)CC1	-3	-4
CC(C)(C)c1cc2nc(-c3ccccc3F)cc(C(=O)NC3CCCCC3)n2n1	4	9
COCCOc1ccc(-n2c(C)cn3c4c(=O)n(C)c(=O)n(C)c4nc23)cc1	-3	-5
Cc1[nH]n(-c2nc(-c3cccc([N+](=O)[O-])c3)cs2)c(=O)c1N=Nc1ccc(C(N)=O)cc1	-7	-13
Cc1[nH]n(-c2ccc(F)cc2)c(=O)c1C1=C(N(C)Cc2ccccc2)C(=O)N(c2ccccc2F)C1=O	5&10	3&12
Cc1cnc(C(NC(=O)CC2CCOc3ccccc32)C2CC2)s1 (stereo unspecified)	-24	-24
CC(=O)Nc1ccc(Cl)c(C(=O)Nc2cnc3n2CCCC3)c1	18	16
Cc1ccc(C(CNc2ccc(S(=O)(=O)N3CCCC(C)C3)cc2[N+](=O)[O-])N2CCOCC2)o1 (stereo unspecified)	8	10
O=C(NCCOc1ccccc1)c1cc2n(n1)CCN(Cc1ccc(C(F)(F)F)cc1)C2=O	14	5
O=c1[nH]c(CN2CCc3ccccc3C2)nc2cc(Cl)ccc12	4&-15	1&-21
CCc1cccc2c(C(CC(=O)NC(C)c3ccccc3)c3ccc(Cl)c(Cl)c3)c[nH]c12 (stereo unspecified)	0	1
Cc1ccc(C2CC(c3cccc(C)c3)=NN2C(=O)CN(C)c2ccccc2)cc1 (stereo unspecified)	5	4

Whole records as entered above. Order of screens: NPYLR7 agonist	NPYLR7 agonist max-min
Listed for `O=c1c2ccccc2cnn1CN1CCN(S(=O)(=O)c2ccccc2F)CC1` → -3	-4
Listed for `Cc1[nH]n(-c2nc(-c3cccc([N+](=O)[O-])c3)cs2)c(=O)c1N=Nc1ccc(C(N)=O)cc1` → -7	-13

Next entries
SMILES	NPYLR7 agonist	NPYLR7 agonist max-min
CN1CCN(C(CNC(=O)NCc2cccc3ccccc23)c2ccsc2)CC1 (stereo unspecified)	9	0
CC1(C)CN(CC(=O)NCC#N)c2cccc(Cl)c21	2	-1
CC(C#N)Sc1nnc(NC2CCCCC2)s1 (stereo unspecified)	4	-1
O=C(c1ccc(Nc2c(Oc3ccccc3)cnn(Cc3ccccc3)c2=O)cc1)N1CCOCC1	11	9
COc1ccccc1NC(=O)Nc1ccc(-c2csc3nc(C)cc(=O)n23)cc1	-2	-2
COc1cc(/C=C2\C(=N)N3N=C(c4cccc(C)c4)SC3=NC2=O)ccc1OS(C)(=O)=O	1	0
COc1ccccc1CCNc1nc(CN2CCN(C(=O)c3ccco3)CC2)nc2ccccc12	16	2
CCOC(=O)CN(CP(N)(=O)OC)S(=O)(=O)c1ccc(C)cc1 (stereo unspecified)	3	0
CC(=O)c1ccc(Cl)c(Cl)c1O	15	11
Cc1cc(C)n2nc(C)c(C(=O)NC3C4CCCC3CN(C3CC3)C4)c2n1 (stereo unspecified)	-2	-2
CN(c1ccc(OC(=O)Nc2ccccc2)cc1)S(=O)(=O)c1ccc2ccccc2c1	3	3
O=C(CCl)Nc1cc2c(cc1[N+](=O)[O-])OCCCO2	13	14
CCOC(=O)C(=Cc1ccc(C)s1)c1nc2sc(C)c(C)c2c(=O)[nH]1	6	2
Cc1cccc(Cl)c1S(=O)(=O)Nc1ccccc1C(=O)NCc1cccc(Cl)c1	-2	4
CCOC(=O)c1ccc(CN2CCCC2(C)C(=O)NCC(C)C)o1 (stereo unspecified)	0	-3
CCOCCCNC(=O)c1cc(NC(=O)c2ccc(-c3ccccc3)cc2)ccc1N1CCN(c2ccccc2OC)CC1	-6	6
CC(NC(=O)c1csc(COc2ccc3c(c2)OCO3)n1)c1ccccc1 (stereo unspecified)	23	24
O=C1N(Cc2cccc(Cl)c2)C[C@@H]2C[C@@H](c3cccc4c3OCO4)N3CCC[C@@]123	1	20
OC(c1cccc(C(F)(F)F)c1)c1nnc(Nc2ccccc2)s1 (stereo unspecified)	-1	-2
C=C(C)CN(CC)C(=O)Cn1nc(C)c(S(=O)(=O)NC(C)(C)C)c1C	0	37
N#Cc1c(-c2ccccc2Cl)cc(C2CC2)nc1N	-5	-6
CN(Cc1nc(-c2ccc3c(c2)OCO3)no1)CC1Cc2ccccc2O1 (stereo unspecified)	5	3
COc1ccc(F)cc1S(=O)(=O)NCc1ccco1	5	1
Cc1ccc(NC(=O)NC(C)(C)c2ncc(C)s2)s1	4	3
Cc1ccc(Cc2nsc(N3CCC(CNC(=O)c4ccc(Cl)cc4)CC3)n2)cc1	16	12
CC1(Cc2ccc(F)c(Cl)c2)C(=O)Nc2cc(-c3ccc(F)cc3F)ccc21 (stereo unspecified)	2	4
CCCCCCC(=O)NC(C(=O)Nc1nnc(-c2ccc(F)cc2)s1)C(C)CC (stereo unspecified)	-10	-11
Cc1noc(C)c1CN(C)C(=O)c1coc(COc2ccc(F)cc2Cl)n1	-3	-4
O=C(Cn1c(CO)c[nH]c1=S)NC1CCCC1	-3	0
Cc1cc(C(=O)CCC(=O)OCc2nc3ccsc3c(=O)[nH]2)c(C)s1	-4	-8
Cc1ccc(S(=O)(=O)NCc2ccc3c(c2)OCO3)c(C)c1C	-2	-8
Cc1ccc(Cl)cc1-n1c(SCc2nc(C(=O)N3CCN(c4cccc(Cl)c4)CC3)cs2)nnc1-c1ccncc1	-9	-12
COC(c1ccccc1)N(CCc1ccccc1)C(=O)C(F)(F)F (stereo unspecified)	10	9
CCCCOc1ccc(S(=O)(=O)N2CCN(CCO)CC2)c2ccccc12	5	0
O=C(Nc1ccc(SCc2ccncc2)nn1)C1CC1	1	0
Cc1ccn2c(=O)nc(SCc3ccc(Cl)c(Cl)c3)nc2c1	6	6
CCOC(=O)c1ccc2c(c1)nc(SCc1ccccc1SC(F)(F)F)n2Cc1ccccc1	9	6
O=C(C1CCCN(C2CCN(C(=O)C3CC3)CC2)C1)N1CC=CCC1 (stereo unspecified)	4	1
Cc1cnc(CCNC(=O)N2c3ccccc3CC2C)s1 (stereo unspecified)	4	2
NC(=O)CSc1ncnc2sc3c(c12)CCCC3	2	-3
COC(=O)c1ccc(OC(=O)c2ccc([N+](=O)[O-])cc2)cc1	-3	-10
CN1CC(=O)N2C[C@H](NC(=O)NCCc3ccccc3)C[C@H]2C1=O	5	4
C=C(C)COc1ccccc1C(=O)NC(C)Cc1cc(C)[nH]n1 (stereo unspecified)	11	3
COc1cn(CC(=O)Nc2cccc3ccccc23)c(CSc2nc(C)cs2)cc1=O	-6	-11
CCN(CC)S(=O)(=O)c1cc(C(=O)Nc2cc(C)on2)ccc1Cl	5	-1
CC1C(=O)N(c2ccc3c(c2)CCC3)CCN1Cc1ccc(F)cc1F (stereo unspecified)	9	34
O=C(O)C1C2C=CC(C2)C1C(=O)O (stereo unspecified)	7	8
Cc1ccccc1OCCn1c(C2CC(=O)N(C(C)(C)C)C2)nc2ccccc21 (stereo unspecified)	-1	-3
Cc1nn(CCNC(C)CN2CCN(C)CC2)c(C)c1Cl (stereo unspecified)	15	15
Cc1nc2c(C(=O)NCc3cccnc3Oc3ccccc3)cccc2[nH]1	4	3
Cc1csc2nc(CS(=O)(=O)C(C)C(=O)Nc3ccccc3F)cc(=O)n12 (stereo unspecified)	13	4
O=C(NCCN1CCn2cc(OCc3ccccc3)c(=O)cc2C1=O)c1ccc(=O)[nH]c1	9	2
O=C(NS(=O)(=O)c1ccc(F)c2ncccc12)C1COCCO1 (stereo unspecified)	-6	545
CC(c1ccc(-c2cn[nH]c2C#N)cc1)N1CCCCC1 (stereo unspecified)	12	5
COc1cccc(-c2nc3ccccn3c2NC(=O)CC(C)C)c1	-20	-15
COc1ccc(Cl)c(NC(=O)CSCC(=O)c2ccccc2)c1	4	1
O=C1c2ccccc2C(=O)N1CCCn1c2ccccc2c2nc3ccccc3nc21	17	12
CC(=O)N[C@@H](C)C(=O)NNC(=O)CC12CC3CC(CC(C3)C1)C2	-3	-6
CCOC(=O)C1CCCN(CC(=O)N2N=C(c3ccc(F)cc3)CC2c2ccco2)C1 (stereo unspecified)	-3	4
C=CC(C)(O)CN(C)CC1CC(c2ccc(Cl)cc2)=NO1 (stereo unspecified)	2	3
The list continues:
SMILES	NPYLR7 agonist	NPYLR7 agonist max-min
O=C(N/N=C1/CCSc2c(F)cccc21)c1ccccc1	5	4
Cc1ccc(NC(=O)c2cccc(OCC3CCCO3)c2)c(C)c1 (stereo unspecified)	1&7	1&2
Cc1nc2c(c(N(C)C)n1)CCN(C(=O)c1cc(C(C)C)nn1C)C2	15	9
Cc1ccc(NC(=O)c2cc(-c3ccccc3)nn2-c2ccccc2)cc1C	-4	7
Brc1ccc(C2=CSC3=NCCN23)cc1	11	4
O=C(N/N=C\c1ccccc1O)c1ccc(=O)[nH]n1	19	20
COc1ccc(C(=O)NC(Cc2ccccc2)c2nnc(SCc3ccc(F)cc3)n2-c2ccc(C)cc2)c(OC)c1 (stereo unspecified)	0	2
CCOC(=O)c1cc(-c2cccc(NC(=O)c3cccc(C#N)c3)c2)n(-c2ccccc2OC)n1	26	14
COc1ccc2nc(-n3nc(C)cc3NC(=O)C3=COCCO3)sc2c1	-6	-14
COc1ccc(C2=NOC(CN(Cc3cccc(Cl)c3)C(=O)NC(C)C)C2)cc1OC (stereo unspecified)	-12	1
CCCCc1ncc(CN2CCN(c3ccccc3OC)CC2C)[nH]1 (stereo unspecified)	3	4
CCOc1ncccc1C(=O)N1CCN(c2ccc(C(F)(F)F)cc2[N+](=O)[O-])CC1	-3	-11

3 of the compounds above, with two lines to a compound.
Each structure is followed by: NPYLR7 agonist	NPYLR7 agonist max-min
COCCOc1ccc(-n2c(C)cn3c4c(=O)n(C)c(=O)n(C)c4nc23)cc1
  -3	-5
Cc1[nH]n(-c2nc(-c3cccc([N+](=O)[O-])c3)cs2)c(=O)c1N=Nc1ccc(C(N)=O)cc1
  -7	-13
Cc1[nH]n(-c2ccc(F)cc2)c(=O)c1C1=C(N(C)Cc2ccccc2)C(=O)N(c2ccccc2F)C1=O
  5&10	3&12

(cont.)
SMILES	NPYLR7 agonist	NPYLR7 agonist max-min
CCc1ccccc1-c1c(-c2ccccc2)ncn1CCC(=O)OC	1	55
COc1ccc(OC)c(-c2nc(CN3CCC4(CC3)CNC(=O)O4)c(C)o2)c1	4	-2
N#Cc1ccc(SCCC(=O)NC(N)=O)cc1	-4	-5
Cc1nnnn1CCCN1CCCC(O)(CN(C)C)CC1 (stereo unspecified)	3	4
O=C(N=Nc1c(O)[nH]c2ccccc12)c1cc(O)c(O)c(O)c1	1	7
COc1ccccc1CCNS(=O)(=O)c1cn(C)c(=O)n(C)c1=O	0	-4
Cc1c(C(=O)N(C)C)c(C(F)(F)F)nn1C1CCCN(C(C)C)C1 (stereo unspecified)	12	3
Cc1oc(C)c(C(=O)NCc2ccc(C)n2C)c1C	0	0
COc1ccccc1NC(=O)c1ccc(C2SCCCS2)cc1	-2	-5
O=C(Cn1nnc2ccccc2c1=O)NCc1cccc(Cl)c1	-8	-9
N#Cc1c2n(c(=O)[nH]c1=O)CCCC2	-4	2
CCOC(=O)N1CCN(C(=O)c2ccc(N3CCC(N[C@H]4CCCCNC4=O)CC3)cc2)CC1	17	6
COCC(C)(C#N)NC(=O)/C=C/c1cnc(C(C)(C)C)s1 (stereo unspecified)	-4	-11
Cc1ccsc1CN(C)C(=O)NCc1ccccc1	9	8
CC(=O)Nc1ccc(NC(=O)CSc2cn(CC(=O)N3CCCC3)c3ccccc23)cc1	-2	-8
COCCCN(CC(=O)N1CCc2sccc2C1c1ccc(Cl)cc1Cl)C(=O)c1cccc([N+](=O)[O-])c1 (stereo unspecified)	-4	8
Cc1ccccc1Cn1cccc1CN(Cc1ccccc1C#N)C1CCCCC1	16	29
C=CCn1c(C2CC(=O)N(c3ccc(C)c(C)c3)C2)nc2ccccc21 (stereo unspecified)	-1	-8
COc1ccccc1N=P(c1ccc(C)o1)(N(C)C)N(C)C	8	5
CC(C)NC(=O)N[C@H]1CCN2C(=O)N(c3cccc4nsnc34)C(=O)[C@@H]2C1	-7	-11
Cc1ccc2c(c1)NC(=O)C2CC(=O)NCc1cn[nH]c1-c1cccs1 (stereo unspecified)	15	1
CCOC(=O)c1[nH]c(C)c(C(=O)C(C)N(CCOC)S(=O)(=O)c2c(C)cc(C)cc2C)c1C (stereo unspecified)	-12	-5
CC1CCC2(CC1)CC(=O)N(CC(=O)NCC1CCC1)C2=O (stereo unspecified)	1	-2
O=C(CC(c1ccccc1)c1ccccc1)NCCc1ccc2c(c1)OCCO2	2	1

Of the compounds above, 10 have an aryl thioether with sulfur outside any ring:
SMILES	NPYLR7 agonist	NPYLR7 agonist max-min
CC(C#N)Sc1nnc(NC2CCCCC2)s1 (stereo unspecified)	4	-1
Cc1ccc(Cl)cc1-n1c(SCc2nc(C(=O)N3CCN(c4cccc(Cl)c4)CC3)cs2)nnc1-c1ccncc1	-9	-12
O=C(Nc1ccc(SCc2ccncc2)nn1)C1CC1	1	0
Cc1ccn2c(=O)nc(SCc3ccc(Cl)c(Cl)c3)nc2c1	6	6
CCOC(=O)c1ccc2c(c1)nc(SCc1ccccc1SC(F)(F)F)n2Cc1ccccc1	9	6
NC(=O)CSc1ncnc2sc3c(c12)CCCC3	2	-3
COc1cn(CC(=O)Nc2cccc3ccccc23)c(CSc2nc(C)cs2)cc1=O	-6	-11
COc1ccc(C(=O)NC(Cc2ccccc2)c2nnc(SCc3ccc(F)cc3)n2-c2ccc(C)cc2)c(OC)c1 (stereo unspecified)	0	2
N#Cc1ccc(SCCC(=O)NC(N)=O)cc1	-4	-5
CC(=O)Nc1ccc(NC(=O)CSc2cn(CC(=O)N3CCCC3)c3ccccc23)cc1	-2	-8

More results follow.
SMILES	NPYLR7 agonist	NPYLR7 agonist max-min
O=C(NC1CCC(n2cnnc2)CC1)c1cnc(-c2ccccn2)nc1 (stereo unspecified)	1	-3
CCCc1cc(C(=O)N2CCC(n3cc(CC(C)C)nn3)CC2)n(C)n1	11	6
CCN(Cc1ccccc1)C(=O)c1cc(Br)c[nH]1	1	-2
CCS(=O)C1CCCCC1NC(=O)c1sc2ccccc2c1Cl (stereo unspecified)	-2	6
CC(C)=CC(=O)N1CCN(c2nccc(-c3cccs3)n2)CC1	22	26
COc1ccc(CN2CCN(C(=O)Nc3ccc(Cl)cc3)CC2)c(OC)c1OC	11	6
Cc1cc(F)ccc1S(=O)(=O)N1CC(c2ccncc2)C1	1	9

Compound activity as filed in PubChem.

An excerpt. The share of hits here may be higher or lower than overall.
